# Assay outcomes deposited in PubChem by National Center for Advancing Translational Sciences (NCATS).
# VACV Venus inh = qHTS for Stage-Specific Inhibitors of Vaccinia Orthopoxvirus: Venus Reporter Primary qHTS; hit rate 0.46% among 330,000; AID 720580, 2013; Vaccinia virus Venus reporter expression, fluorescence; Potency, µM (titrated, usually from 36.5 µM), without a hit: at the highest dose activity change, negative = inhibition, hits mostly inhibitors; active means well fitted inhibition curve with a large enough effect; inconclusive means small, poorly fitted or top-dose-only effect; inactive means no such curve, though single readings can be large or run the other way; tested in A549 cells; also: nearly all actives have a fitted effect of over 30% in size; inactives centre near -10
# VACV mCherry inh = qHTS for Stage-Specific Inhibitors of Vaccinia Orthopoxvirus: mCherry Reporter Primary qHTS. hit rate 0.63% among 310,000. AID 720579, 2013. Potency, µM (series often up to 36.5 µM), inactives show at the top dose activity change, negative = inhibition, actives largely listed as inhibitors. Vaccinia virus mCherry reporter infection, fluorescence; about a quarter of the inactives have no number; active = well fitted inhibition curve with a large enough effect; inconclusive = small, poorly fitted or top-dose-only effect; inactive = no such curve, though single readings can be large or run the other way; tested in A549 cells; also: nearly all actives have a fitted effect of over 35% in size; inactives centre near -10
# Active calls of the source: *; i = inactive; ? = inconclusive; . = not tested or not shown; & = joins results of further samples; [ ] = dose if it differs, or a comment. % is scaled to controls: 0 for no effect and ±100 for the full control effect; potency is read from the fitted curve at half-maximal effect.
smiles,VACV Venus inh,VACV mCherry inh
Cc1ccccc1C1(O)c2ccccc2-c2ccccc21,-21%,i
O=C(Nc1cc(-c2nc3cc(Cl)ccc3o2)ccc1Cl)c1cc2ccccc2o1,-12%,-3%
Cc1cc(/C=N/Nc2nc(N3CCOCC3)nc(N3CCOCC3)n2)c(C)n1-c1ccccc1,-6%,1%
Cc1cc(C)c(Nc2nn3c(=O)c4cc5c(cc4nc3s2)OCO5)c(C)c1,5%,-7%
Cc1ccccc1Nc1c(-c2ccccn2)nc2c(C)cccn12,?,-28%
COc1ccc(OC)c(NC(=S)NCc2ccco2)c1,-9%,-16%
CCCCOc1cccc(C(=O)N(Cc2ccc(Br)o2)C2CCS(=O)(=O)C2)c1 (stereo not drawn),-15%,-5%
CCC(Cn1nnc2ccccc2c1=O)NC(=O)Nc1cccc(C)c1C (stereo not drawn),1%,-3%
c1cc(CSc2nnc(-c3ccc4c(c3)OCO4)o2)ccn1,-12%,14%
C=CCOc1nc(-c2ccccc2Cl)nc2ccccc12,-11%,-8%
Cc1cccc(N2C(=S)N=C(Nc3c(C)cccc3C)C23CCOC(C)(C)C3)c1 (stereo not drawn),1%,.
COc1cc(-c2cc(NC=O)c3ncc(-c4ccc(C(C)=O)cc4)n3c2)cc(OC)c1OC,?,?
COc1ccc(C(=O)N[C@H]2COC(C)(C)O[C@H]2c2ccccc2)cc1,-4%,-6%
COc1ccc(CCNC(=O)C2CCN(c3nc4ccccc4nc3C(F)(F)F)CC2)cc1OC,-23%,-18%
Cc1ccc(Cn2c(=O)n(-c3ccccc3)c(=O)c3ccc(C(=O)NCc4ccco4)cc32)cc1,?,?
Cc1ccc(CN(C#N)c2nc(C)cc(C)n2)cc1,-18%,-9%
O=C(Nc1ccc2oc(-c3ccncc3)nc2c1)c1ccc(Br)o1,-9%,-3%
CCc1cccc(C)c1NC(=O)Cn1c(=O)n(-c2cccc(C)c2)c(=O)c2c1c1cc(C)ccc1n2C,-28%,-17%
C=CCC(CC=C)(NC(=O)c1cccc(C)c1)c1ccccc1,-15%,-15%
Cc1ccc(/C=C2\SC(N3CCCCC3)=NC2=O)cc1,-15%,-9%
O=C(Nc1ccccc1N1CCCC1)c1ccc(Br)o1,-19%,-20%
CN(Cc1ccccc1)C(=O)c1cccc(NC(=O)C2CCCN(C(=O)OC(C)(C)C)C2)c1 (stereo not drawn),?,i
Cc1ccc(C(=O)n2nc(C)c(S(=O)(=O)N3CCOCC3)c2C)cc1C,-1%,9%
CCOC(=O)c1cc(-c2ccc(F)cc2)n(CC(=O)NC2CCCCC2)c1C,-6%,-13%
COc1ccccc1NC(=O)CN1C(=O)CC(C)S(=O)(=O)c2ccccc21 (stereo not drawn),-6%,i
Cc1ccccc1OCC(O)CN1CCN(c2ccccn2)CC1 (stereo not drawn),-4%,-10%
O=C(CSc1nc(Nc2ccccc2)nc(N2CCOCC2)n1)N1CCCC1,-23%,.
Clc1cccc(CSc2nc3ccncc3[nH]2)c1,-14%,i
CCN(C[C@H]1N[C@@](C)(C(=O)OC)[C@H]2C(=O)N(Cc3ccccc3)C(=O)[C@@H]12)C(=O)c1ccc(C(C)(C)C)cc1,-12%,-3%
C#CC[N+](C)(C)C(C#Cc1ccccc1)CC=C (stereo not drawn),-27%,-2%
O=C(NCc1nc2ccccc2[nH]1)c1cccc(S(=O)(=O)N2CCCCC2)c1,-3%,-13%
CN(c1ccccc1)c1nc(N)c([N+](=O)[O-])c(N2CCCCCC2)n1,10%[7.34 µM],i[7.34 µM]
CC(=O)c1cn(CC(=O)Nc2ccc(C)cc2)c2ccccc12,-16%,-14%
CCN1C(=O)Cc2cc(S(=O)(=O)NCCc3ccccc3)ccc21,1%,?
O=C(NCC(c1ccc(F)cc1)N1CCOCC1)c1ccc(OCc2ccccc2)cc1 (stereo not drawn),-14%,-2%
Cc1ccc(/C=N/NC(=O)C(O)c2ccccc2)o1 (stereo not drawn),-1%,i
Nn1c(SCC(=O)Nc2ccccc2Oc2ccccc2)nnc1C1CC1,-8%,-18%
Cc1ccc2c(c1)N(C(=O)CCC(=O)NCc1ccccc1F)CC(C)O2 (stereo not drawn),-5%,-8%
CSc1nc(N)nc2c1ncn2CC(=O)N1CCN(Cc2c(C)cc(C)cc2C)CC1,-21%,i
Cc1ccc(N2CCN(c3nc4ccc(C)cc4n4nnnc34)CC2)c(C)c1,-8%,-8%
Cc1ccc(C23CC4CC(CC(C(=O)N5CCOCC5)(C4)C2)C3)cc1,-11%,-16%
CCN(C(=O)COC(=O)c1ccc2c(=O)n3c(nc2c1)CCC3)C1CCS(=O)(=O)C1 (stereo not drawn),-9%,-12%
C/C(CC(=O)Nc1ccc2c(c1)OCCO2)=N\NC(=O)c1cccc(O)c1,-3%,-13%
Cc1ccc2[nH]c(C(F)(F)F)cc(=O)c2c1,-23%,?
COc1ccc(NC(=O)CSCC(=O)Nc2ccc(S(=O)(=O)N3CCCCC3)cc2)cc1,-8%,-15%
O=C(Nc1nnc(CCS(=O)(=O)c2ccc3ccccc3c2)s1)c1ccc([N+](=O)[O-])cc1,-10%,-18%
O=c1c2c3nc4ccccc4nc3n(CC3CCCO3)c2ncn1CCc1ccccc1 (stereo not drawn),17%,.
O=C1/C(=C/c2ccc(O)c([N+](=O)[O-])c2)SC(=S)N1Cc1ccccc1,1%,-4%
COc1cc(Cl)c(C)cc1NC(c1ccccc1)c1nnc(-c2ccccc2Cl)o1 (stereo not drawn),-5%[7.34 µM],-9%[7.34 µM]
COc1cccc(NC(=O)N2CCC(NC(=O)C(Cc3ccccc3OC)NC(C)=O)CC2)c1 (stereo not drawn),4%,6%

# Additional structures:
# Value order: VACV Venus inh | VACV mCherry inh
- CS(=O)(=O)N(CC(=O)Nc1cccc(Br)c1)Cc1ccccc1
    -9% | -14%
- O=C(CSc1ccc(-c2ccccn2)nn1)Nc1nccs1
    -6% | -23%
- O=c1cc[nH]c2c(C(F)(F)F)cccc12
    -3% | -4%
- CC(=O)Nc1ccc(S(=O)(=O)N2CCN(Cc3ccncc3)CC2)cc1
    -15% | -14%
- Cc1ccc(-n2nnnc2-c2cnc(N3CCCC3)nc2C(F)(F)F)cc1
    ? | ?
- O=C1CC(C(=O)Nc2ccc(C(=O)N3CCOCC3)cc2)C2(CCCCC2)O1 (stereo not drawn)
    -7% | .
- Cc1ccc(NC(=O)c2c(C)oc3c2C2=NCCN2C=N3)cc1F
    -2% | -10%
- C=CCc1cccc(C=Nc2c[nH]c(=O)[nH]c2=O)c1O
    -15% | -1%
- Cc1cccc(NC(=O)N2CCCC2C(=O)Nc2ccccc2)c1 (stereo not drawn)
    -1% | -12%
- Cc1ccc(S(=O)(=O)N2CCCC(C(=O)NCc3ccccn3)C2)cc1 (stereo not drawn)
    -9% | -12%
- COC(=O)C1=C(c2ccccc2)C[C@@H]2CC[C@H]1N2C(=O)NC(C)C
    -5% | i
- COc1ccc(C/C(N)=N/OC(C)=O)cc1OC
    -10% | -18%
- CC1(C)CC(=O)C2=C(C1)N(c1ccc(F)cc1)C(=O)NC2(C(F)(F)F)C(F)(F)F
    -9% | ?
- Cc1nc2nc[nH]n2c(=O)c1NC(=O)CCc1ccccc1
    -1% | .
- Cc1cccc(N(C(=O)c2snc(C(N)=O)c2N)C(C(=O)NCC2CCCO2)c2ccc3ncccc3c2)c1 (stereo not drawn)
    -1% | -7%
- CC(=O)[C@H]1[C@H](C#N)C[C@H]2[C@@H]3CC=C4C[C@@H](O)CC[C@]4(C)[C@H]3CC[C@@]21C
    -11% | -13%
- COc1cccc(-c2nc(CS(=O)(=O)CC(=O)Nc3c(C)cccc3C)c(C)o2)c1
    ? | -17%
- CC(C(=O)OCC(=O)Nc1ccccc1OC(F)F)N1C(=O)C2CC=CCC2C1=O (stereo not drawn)
    -5% | -7%
- C[C@@]12CCC3C(CCC4=CC(=O)CC[C@]43C)C1CCC2O (stereo partly drawn)
    7% | -4%
- Cc1noc(C)c1COc1ccc2ccc(=O)oc2c1
    -15% | 0%
- O=c1c2cnn(-c3ccccc3)c2nc(-c2cccs2)n1-c1cccc(Cl)c1
    -24% | i
- N#Cc1nc(-c2ccccc2Cl)oc1NCC1CCCO1 (stereo not drawn)
    -30% | -33%
- NS(=O)(=O)c1ccc(CCNC(=O)c2cncc(Br)c2)cc1
    -17% | -16%
- CCCNC(=O)C1(CC2CC(c3ccccc3)=NO2)CCN(C(=O)CCCCCBr)CC1 (stereo not drawn)
    -12% | i
- COc1cc(C)c2c(c1C=O)Oc1c(c(C)c(O)c3c1C(O)OC3=O)OC2=O (stereo not drawn)
    0%&-6% | 2%
- O=C(N/N=C/c1ccc(O)c([N+](=O)[O-])c1)C1CC1(c1ccccc1)c1ccccc1 (stereo not drawn)
    -13% | -10%
- Cc1c(C(=O)Nc2cccc(C(F)(F)F)c2)sc2nc3n(c(=O)c12)CCC3
    -11% | -1%
- COc1ccc2c(c1)c1c(c(=O)n(-c3ccc(OC)c(OC)c3)c(=O)n1Cc1ccc(F)cc1)n2C
    3% | 10%
- CSc1ccc(/C=C(/NC(=O)c2ccccc2)C(=O)NCCN2CCOCC2)cc1
    -1% | -9%
- O=S(=O)(/N=C(\c1ccccc1)N1CCOCC1)c1cccs1
    -29% | .
- Fc1ccc(NC(=S)NC2CC3CCC(C2)N3Cc2ccco2)cc1 (stereo not drawn)
    -5% | -12%
- CC(C)N1CCc2[nH]c(=S)[nH]c(=O)c2C1
    -10% | -6%
- Clc1ccc2nc(-c3ccc(Cl)nc3)[nH]c2c1
    -18% | i
- CC(C)=NNc1cnnc2ccc([N+](=O)[O-])cc12
    -1% | 3%
- COC(=O)c1ccccc1NC(=O)NC1CCN(Cc2ccccc2)CC1
    -24% | -27%
- CCC1CCCCN1Cc1ccc(OC)c(C)c1C (stereo not drawn)
    -4% | -12%
- CCCCc1ccc(NC(=O)COc2ccc(C(=O)Nc3ccccc3OCC)cc2)cc1
    -7% | -6%
- COc1ccc(S(=O)(=O)N2CCOC2CNC(=O)C(=O)NCCCN2CCOCC2)cc1OC (stereo not drawn)
    -10% | -11%
- CCCOc1ccc(Oc2nc(NCC(C)C)nc(N3CCOCC3)n2)nn1
    -11% | -14%
- Cc1c(NC(=O)CSc2nc3ccc(Cl)cc3[nH]2)c(=O)n(-c2ccccc2)n1C
    ? | .
- COCC(=O)N(Cc1cc2cccc(C)c2[nH]c1=O)c1ccccc1
    -2% | i
- Cc1ccc(NC(=O)c2cc(S(=O)(=O)N3CCCc4ccccc43)ccc2F)cc1F
    -13% | -7%
- Cc1ccc(NC(=O)N/C=C/c2ccccc2)cc1
    5% | .
- O=[N+]([O-])c1ccc(S(=O)(=O)NCC(c2cccnc2)N2CCc3ccccc3C2)cc1 (stereo not drawn)
    -5% | -11%
- CCOC(=O)N1CCN(S(=O)(=O)N2CCCC(C(=O)NCc3ccc(OC)cc3OC)C2)CC1 (stereo not drawn)
    -4% | -7%

# 4 entries from above, as labelled records:
structure: CC(C)=NNc1cnnc2ccc([N+](=O)[O-])cc12
  VACV Venus inh: -1%	VACV mCherry inh: 3%
structure: COC(=O)c1ccccc1NC(=O)NC1CCN(Cc2ccccc2)CC1
  VACV Venus inh: -24%	VACV mCherry inh: -27%
structure: CCC1CCCCN1Cc1ccc(OC)c(C)c1C (stereo not drawn)
  VACV Venus inh: -4%	VACV mCherry inh: -12%
structure: CCCCc1ccc(NC(=O)COc2ccc(C(=O)Nc3ccccc3OCC)cc2)cc1
  VACV Venus inh: -7%	VACV mCherry inh: -6%

# Other records follow:
# Value order: VACV Venus inh | VACV mCherry inh
- CCOC(=O)C1CCN(C(=O)c2cc(S(=O)(=O)N3CCCCCC3)ccc2OC)CC1
    -13% | -6%
- Cc1ccc(C(=O)Oc2csc(=S)n2C(=O)c2ccc(C)cc2)cc1
    -3% | -7%
- COc1ccc(CNC(=O)c2cccn2-c2nnc(N3CCCC3)s2)c(OC)c1
    -13% | -7%
- CC(C)(C)n1c(O)c(C=Nc2ccc3c(c2)CCC3)c(=O)[nH]c1=O
    3% | 3%
- C[C@@H]1CN([C@H](C)CO)C(=O)CCCn2cc(nn2)CO[C@H]1CN(C)C(=O)Nc1cccc(C(F)(F)F)c1
    5% | -5%
- CCOC(=O)c1c(OCCO)nn(-c2ccc(Cl)cc2)c1N
    -3% | -2%
- O=C(Cc1ccc(S(=O)(=O)N2CCOCC2)s1)Oc1ccc(F)cc1
    -13% | i
- COc1ccc(-c2nc3ccc([N+](=O)[O-])cc3o2)cc1
    -5% | -16%
- OCCC#Cc1c(-c2ccsc2)sc2ccccc12
    -27% | i
- CCOc1ccc(CCNC(=O)COC(=O)c2cccs2)cc1OCC
    -8% | -9%
- COc1ccc(NC(=O)c2ccccc2NC(=O)CSc2ccc(Cl)cc2)cc1
    -10% | .
- COc1ccc(NC(=O)c2ccccc2NC(=O)COc2ccccc2)cc1
    0% | -7%
- O=C(NCCc1ccc(F)cc1)c1ccc2c(=O)n3c(nc2c1)CCC3
    -4% | -3%
- Cc1ccc2c(COC(=O)c3ccc(C)c(C)c3)cc(=O)oc2c1
    18% | -2%
